Screens: PubChem BioAssay, National Center for Advancing Translational Sciences (NCATS)
CtBP-E1A blk: blocks the CtBP interaction with E1A; activity change, % (test concentration not listed); 0.49% of 340,000 active; AlphaScreen GST-E1A/His-CtBP binding, 1536-well; active compounds read low; control for the full effect not named in the record; in the data active means activity change below about -65%; inconclusive means about -30% to -65%; inactive means above about -30%; further: on the % scale 0 is the no-effect control and ±100 the full control effect
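In 5 uL wells, 23 nL compound meets equimolar GST-E1A and His-CtBP (5X stock 125 nM each) for 2 h, 37 °C. Beads (5X, 50 ug/mL) then 1 h, 37 °C, dark.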
gsp agonist: gsp mutant agonism; gsp mutant cells, cAMP HTRF, 30 min; control for the full effect not named in the record; 0.13% of 340,000 active; Potency, µM (highest dose often 76.9 µM), for inactives: at the top dose activation (cAMP increase), hits mostly activators; AID 624287; active = well fitted activation curve with a large enough effect; inconclusive = small, poorly fitted or top-dose-only effect, or another doubt; inactive = no such curve, though single readings can be large or run the other way; cell line not stated here;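 further: phosphodiesterase inhibitor Ro 20-1724 added with compounds to block cAMP breakdown; potency means the concentration at half of the fitted maximal effect; nearly all actives have a fitted effect of over 60% in size; about a fifth of the inactives were tested at one dose only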
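Cells in DMEM/10% FBS with G418 were pretreated with compounds in DMSO plus […] (300 uM stock) for 30 min at 37C. cAMP was measured by HTRF (cAMP-d2 plus anti-cAMP antibody-K) after 30 min at room temperature.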
gsp antagonist: antagonizes gsp, the McCune-Albright syndrome mutation; gsp-mutant cells, cAMP HTRF, 30 min; control for the full effect not named in the record; Potency, µM (highest dose often 76.9 µM), for the others: at the highest dose activity change, negative = inhibition, usual class: inhibitors; 0.4% of 340,000 active; AID 624288; active = falling curve of any shape with a large fitted effect; inconclusive = falling curve, mostly with a smaller effect; inactive = flat or rising curve; cell line not stated here;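 further: intracellular cAMP measured with PDE inhibitor Ro 20-1724 present during compound exposure; potency means the concentration at half of the fitted maximal effect; on the % scale 0 is the no-effect control and ±100 the full control effect; nearly all actives have a fitted effect of over 65% in size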
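Cells in G418 medium, seeded 16-24 h, 37C; buffer exchange to DPBS + 1 mM CaCl2, 0.5 mM MgCl2, 0.05% BSA; cpds in DMSO + […] (300 uM stock), 30 min 37C; HTRF cAMP detection.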
TRPV1 potentiator: enhances activation of the human vanilloid receptor TRPV1. TRPV1-expressing cells, Fluo-8 calcium influx, capsaicin EC20 potentiation; host cell line not named in the record; control for the full effect not named in the record. AID 540277. 0.02% of 320,000 active. potentiation, % at 8.33 µM. Q8NER1; active means potentiation above 80%; inconclusive means 30% to 80%; inactive means below 30%; further: 0% is about no effect
Target sequence (Q8NER1 whole entry, looked up): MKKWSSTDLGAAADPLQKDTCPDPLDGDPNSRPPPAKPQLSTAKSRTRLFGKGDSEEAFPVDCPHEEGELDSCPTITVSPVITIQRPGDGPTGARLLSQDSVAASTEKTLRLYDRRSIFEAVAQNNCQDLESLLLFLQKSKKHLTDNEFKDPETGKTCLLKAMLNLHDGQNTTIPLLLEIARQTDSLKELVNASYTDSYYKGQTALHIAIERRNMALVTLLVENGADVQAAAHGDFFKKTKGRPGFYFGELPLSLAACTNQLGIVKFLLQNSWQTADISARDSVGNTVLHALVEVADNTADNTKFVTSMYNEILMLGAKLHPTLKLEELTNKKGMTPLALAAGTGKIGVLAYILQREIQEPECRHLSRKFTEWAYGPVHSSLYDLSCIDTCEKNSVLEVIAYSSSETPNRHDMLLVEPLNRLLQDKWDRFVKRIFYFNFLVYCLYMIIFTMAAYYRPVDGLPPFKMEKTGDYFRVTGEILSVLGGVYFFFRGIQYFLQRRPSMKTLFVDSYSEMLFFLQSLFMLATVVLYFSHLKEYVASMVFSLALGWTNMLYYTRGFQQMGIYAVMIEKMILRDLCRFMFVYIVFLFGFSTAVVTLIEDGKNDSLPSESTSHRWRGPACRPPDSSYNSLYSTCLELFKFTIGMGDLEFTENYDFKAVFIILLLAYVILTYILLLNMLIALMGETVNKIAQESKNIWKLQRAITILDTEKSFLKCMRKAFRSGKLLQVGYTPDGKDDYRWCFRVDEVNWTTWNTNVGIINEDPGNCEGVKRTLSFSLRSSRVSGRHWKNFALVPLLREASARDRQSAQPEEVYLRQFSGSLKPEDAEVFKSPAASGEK
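Fluo-8 calcium influx in TRPV1-expressing cells, kinetic read (ex 480/em 520 nm). Compound added and read 3 min for agonist activity, followed by capsaicin at EC20 final and 2 min further read for enhancement.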
Sfp inh: Sfp phosphopantetheinyl transferase inhibition | 3.5% of 310,000 active | Q9F4F7 | Biochemical Sfp PPTase activity, qHTS | Potency, µM, for the others: max response, negative = inhibition, actives largely listed as inhibitors; active means well fitted inhibition curve with a large enough effect; inconclusive means small, poorly fitted or top-dose-only effect, or another doubt; inactive means no such curve, though single readings can be large or run the other way;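 further: the enzyme is Sfp with the accession as filed and its product quenches rhodamine fluorescence; potency means the concentration at half of the fitted maximal effect; 0% = enzyme reaction without inhibitor and -100% = no enzyme wells; top concentration of the series not given in the record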
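Compounds were incubated with enzyme (final 15 nM) for 15 min at room temperature before substrate addition started the reaction. Fluorescence at 525 nm excitation, 598 nm emission was recorded immediately and after 30 minutes.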
ClpP mod: qHTS Assay for Activators of ClpP; ATP-dependent Clp protease proteolytic subunit (Bacillus subtilis (strain 168)), P80244; purified B. subtilis ClpP, FRET peptide cleavage, 20 min; Potency, µM (top dose mostly 57.5 µM), for the others: top-dose activity change, negative = active; 1.9% of 340,000 active; AID 651965, 2013; active = well fitted falling curve with a large enough effect; inconclusive = small, poorly fitted or top-dose-only effect; inactive = no such curve, though single readings can be large or run the other way; further: potency means the concentration at half of the fitted maximal effect; the source files actives as falling curves though it sought activators and does not explain the sign; nearly all actives have a fitted effect of over 65% in size; many hits overshoot -100%
Target sequence (P80244 whole entry, looked up): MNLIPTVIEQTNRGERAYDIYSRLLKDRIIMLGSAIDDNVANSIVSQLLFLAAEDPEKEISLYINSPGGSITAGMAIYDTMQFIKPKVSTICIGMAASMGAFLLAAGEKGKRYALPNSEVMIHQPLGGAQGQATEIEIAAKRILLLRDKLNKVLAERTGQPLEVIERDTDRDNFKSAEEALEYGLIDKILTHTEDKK
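Buffer: 100 mM Tris/HCl pH8, 100 mM KCl, 0.05% low protease BSA, 2.5% glycerol, 0.01% Tween-20. ClpP 10 microg/mL final; 20 min RT; delta FRET normalized to ADEP and DMSO controls.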
Menin MLL FP FL: menin-MLL binding inhibition, fluorescein peptide | 290,000 tested, under 10 active | Fluorescence polarization, fluorescein-MLL peptide displacement from menin | FP activity change, % at 61.4 µM; inconclusive = falling polarisation curve, or a change in total fluorescence; inactive = total fluorescence flat and polarisation flat or rising; no compound was filed as active; the % refers to the polarisation; negative = inhibition;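 further: % of control where 0% means no effect; inhibitors lower the polarisation; unlabelled MLL peptide was the positive control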
* marks the source's active call; other numbers are inactive results; ? = inconclusive; · = no result given; & = joins results of further samples; [ ] = another dose, or the depositor's remark.

SMILES	CtBP-E1A blk	gsp agonist	gsp antagonist	TRPV1 potentiator	Sfp inh	ClpP mod	Menin MLL FP FL
Cc1ccc(S(=O)(=O)c2c(N)n(NC(=O)c3ccco3)c3nc4ccccc4nc23)cc1	-1	10%	-6%	4	-12%	8.9µM*	11
COc1ccccc1N1CCN(/N=C/c2cc([N+](=O)[O-])ccc2Cl)CC1	-15	5%	7%	-2	11%	-1.2%	-1.0
COc1ccccc1Oc1ccc(NC(=O)c2ccc(Cl)cc2)cc1	2	20%	-2%	-8	8%	-2.7%	-1.0
O=C(NNS(=O)(=O)c1ccc(Cl)cc1)c1cc(-c2ccccc2)n[nH]1	-4	-20%[15.4 µM]	-5%	16	10%	·	-4.0
Cc1cccc(NC(=O)C2CCCN(S(=O)(=O)c3ccc(-n4cnnn4)cc3)C2)c1 (stereo not drawn)	-1	19%	0%	2	7%	·	-0.8
Cc1cccc(C)c1OCC(N)C(C)C (stereo not drawn)	1	·	6%	-26	·	0.3%	-4.2
COc1cccc(N2CCN(C3OC(=O)c4ccccc43)CC2)c1 (stereo not drawn)	11	28%	9%	25	7%	0.7%	-0.1
C#CCOC(=O)Nc1cc(C)n(-c2ccccc2)n1	·	11%	-1%	8	14%	-1.7%	0.4
CCOC(=O)c1ccc2[nH]c3c(c2c1)CCCC3C(=O)OCC (stereo not drawn)	-20	10%	0%	-12	-10%	?	-3.0
Cc1ccc(NC(=O)CCC2CC(C)(C)OC2=O)cc1 (stereo not drawn)	3	-24%	3%	-26	15%	·	0.7
CC(C)(C)c1nn(-c2ccccc2)c2[nH]c(=O)c(CNCc3ccc4c(c3)OCO4)cc12	-4	-49%[inhibitor]	-6%	5	-1%	-16%	11
COc1ccc(CCNC(=O)CC2SC(=NCCc3ccccc3)NC2=O)cc1OC (stereo not drawn)	4	10%[15.4 µM]	-4%	3	-7%	·	4.1
N#CCN1CCC(c2cc(-c3ccco3)n[nH]2)CC1	·	2%[15.4 µM]	14%	6	11µM*	·	-17
CCOC(=O)N1CCN(C(=O)C2CCCN(Cc3nc(-c4ccc(Cl)cc4)oc3C)C2)CC1 (stereo not drawn)	19	-52%[inhibitor]	-7%	6	2%	-1.9%	4.3
Cc1nc2nc(C)c(CCC(=O)NCCCN3CCN(c4cccc(Cl)c4)CC3)c(C)n2n1	-4&6	-9%&-23%	8%&8%	-13&-6	3%&7%	1.1%	1.6&1.4

Sfp inh, entries above that show a hit.
| Structure | CtBP-E1A blk | gsp agonist | Sfp inh | Menin MLL FP FL |
| --- | --- | --- | --- | --- |
| N#CCN1CCC(c2cc(-c3ccco3)n[nH]2)CC1 | · | 2%[15.4 µM] | 11µM* | -17 |

Continued.
SMILES	CtBP-E1A blk	gsp agonist	gsp antagonist	TRPV1 potentiator	Sfp inh	ClpP mod	Menin MLL FP FL
COc1ccc(NC(=O)CN(C)C(=O)c2ccccc2OC)cc1	-4	11%[15.4 µM]	9%	3	10%	-4.9%	7.0
COc1ccc2c(c1OC)C(=O)OC2c1c(O)nc(SC)n(-c2ccccc2)c1=O (stereo not drawn)	0	-30%	6%	5	16%	-2.4%	0.5
Cc1ccc2c(CN3CCN(S(=O)(=O)c4ccccc4C(F)(F)F)CC3)cc(=O)oc2c1	·	2%	-11%	-8	·	-9.8%	·
Oc1ccc(C2=Nn3c(nnc3-c3ccco3)SC2)cc1O	-94*	1%	2%	-24	?	-1.6%	3.3
Cc1ccc(N2CCN(S(=O)(=O)c3ccc4c(c3)n(C)c(=O)c(=O)n4C)CC2C)cc1 (stereo not drawn)	15	-29%	3%	1	4%	48%	-0.9
Cc1ccc(NC(=O)CSc2nnc(C)n2CC2CCCO2)cc1 (stereo not drawn)	·	3%	10%	1	19%	-2.9%	-0.7
O=C(NN=C1CCCCCCC1)c1ccccn1	-11	-16%	12%	-4	19%	0.2%	2.0
Cc1ccc(C)c(NC2=C(Cl)C(=O)OC2OC(C)C)c1 (stereo not drawn)	·	-18%	-4%	2	14%	3.9%	-0.4
Cc1[nH]c2ccc(OC(F)(F)F)cc2c1CCN1C(=O)c2ccc(C(=O)O)cc2C1=O	1	15%	-20%	-2	1%	·	0.8
CCOCCCNC(=O)C1CCCN(S(=O)(=O)c2ccc(-n3cnnn3)cc2)C1 (stereo not drawn)	8	6%[15.4 µM]	1%	-4	15%	·	·
O=C(NC1C=CS(=O)(=O)C1)c1ccccc1 (stereo not drawn)	6	-1%	16%	-3	25%	·	0.0
Cc1ccc(C)c(N2CCN(C(=O)CN3C(=S)NC(C)(C)CC3C)CC2)c1 (stereo not drawn)	10	-17%[15.4 µM]	4%	4	12%	-0.5%	-0.4
Cc1ccc(C)c(N2CCN(S(=O)(=O)c3ccc4c(c3)NC(=O)CO4)CC2)c1	-20	10%	-13%	16	-4%	-3.5%	·
COc1ccc2cc(C(=O)C3CCCN(C(=O)/C=C/c4ccccn4)C3)ccc2c1 (stereo not drawn)	16	0%[15.4 µM]	-30%	-3	-4%	·	14
CCOCCCNc1ccc(-c2ccccc2)nn1	6	-19%	-6%	6	16%	-7.0%	1.1

Taken from above.
TRPV1 potentiator, CCOCCCNC(=O)C1CCCN(S(=O)(=O)c2ccc(-n3cnnn3)cc2)C1 (stereo not drawn) reads -4
CtBP-E1A blk, Cc1[nH]c2ccc(OC(F)(F)F)cc2c1CCN1C(=O)c2ccc(C(=O)O)cc2C1=O reads 1

Going on with the list:
SMILES	CtBP-E1A blk	gsp agonist	gsp antagonist	TRPV1 potentiator	Sfp inh	ClpP mod	Menin MLL FP FL
CCc1nnc(NS(=O)(=O)c2ccc(N=Cc3c(C)[nH]n(-c4ccc(C)cc4)c3=O)cc2)s1	10	-17%	-29%	4	15%	1.7%	3.9
O=C(Nc1ccccc1C(=O)OCc1nnc(-c2ccccc2)o1)c1ccco1	-11	-43%[inhibitor]	-7%	-7	-8%	?	2.5
Cc1cccc(NC(=O)CSc2ncnc3sc(C)c(C)c23)n1	0	?	-17%	24	-12%	-1.9%	·
O=C(CNCc1ccc(F)cc1)Nc1ccccc1[N+](=O)[O-]	1	2%[15.4 µM]	8%	-3	4%	-1.4%	-0.2
Cc1ccc(S(=O)(=O)N2CCN(CCOc3c(Cl)cccc3Cl)CC2)cc1C	3	-47%[inhibitor]	-12%	14	·	0.9%	·
COc1ccc(-c2ccnc3c(C(=O)O)cnn23)cc1	-15	26%	-10%	7	-2%	·	-4.9
CC(OC(=O)c1ccc(-n2cnnn2)cc1)C(=O)Nc1ccccc1[N+](=O)[O-] (stereo not drawn)	·	-18%	-11%	6	·	0.5%	·
COc1ccc(-n2c(SCC(=O)Nc3cc(C)on3)nc3c(c2=O)SCC3)cc1	-5	6%	-5%	13	3%	-0.2%	5.4
Cc1c(NC(=O)CN2CCN(c3ccc(O)cc3)CC2)c(=O)n(-c2ccccc2)n1C	·	4%	-5%	-5	22µM*	-7.9%	-2.8
CN1CCN(c2nc3c(c(=O)[nH]c(=O)n3C)n2CCOc2ccccc2)CC1	-12	29%	16%	-4	14%	-3.5%	0.9
Cc1c(O)ccc2c(CC(=O)N[C@@H](Cc3c[nH]c4ccccc34)C(=O)O)cc(=O)oc12	0	-64%[inhibitor]	13%	10	19%	3.5%	0.0
Cc1ccccc1NC(=O)C1CCC(C)(C(=O)O)C1(C)C (stereo not drawn)	-4	7%	11%	-13	26%	-2.8%	2.2
CCOC(=O)c1ccc(-n2c(C)nc3c(cnn3-c3ccccc3Cl)c2=O)cc1	1	8%	-26%	7	9%	-6.4%	-0.5
CC(=O)Nc1nonc1NC(=O)CSC1=NCCS1	-1	-4%	-6%	-5	-6%	-1.0%	4.2
Cc1oc(-c2ccccc2Cl)nc1CN1CCCCC1c1cccnc1 (stereo not drawn)	0	?	9%	30	2%	0.0%	6.2
Cc1noc(C)c1COc1ccc(C(=O)OCC(=O)NCCN2C(=O)CSC2=O)cc1	1	26%[15.4 µM]	-6%	-7	10%	·	-7.3
COc1cc(SC)ccc1C(=O)N1CC(C)OC(C)C1 (stereo not drawn)	-17	-4%[15.4 µM]	10%	-19	6%	·	1.6
O=[N+]([O-])c1ccc(O)c2ncccc12	-96*	·	-12%	4	-25%&13%	-0.5%	2.5&1.5
C=CCn1cc(C(=O)N2CCN(C)CC2)c(=O)c2cc(S(=O)(=O)N3CCCC3)ccc21	-3	-58%[inhibitor]	8%	17	-11%	-2.7%	1.0
COC(=O)c1ccc(N2OC3(C)C=CC2CC3)cc1 (stereo not drawn)	-19	-4%[15.4 µM]	13%	-13	-17%	-1.2%	-0.4
Nc1ccc(NC(=O)c2cccc(C(=O)Nc3ccc(N)cc3Cl)c2)c(Cl)c1	-21	-6%[15.4 µM]	-7%	-6	11%	0.3%&2.6%	-7.0
N#Cc1cc(N)ccc1-n1cccc1	-7	15%	3%	-8	8%	-7.9%	-6.0
COc1ccc(CNCCc2ccc([N+](=O)[O-])cc2)c(OC)c1OC	·	-26%	-6%	-1	11%	-1.1%	-0.9
COc1ccc(-c2nc(Cc3ccc(Cl)cc3)no2)cc1OC	8	-2%	1%	-3	?	?	1.7
O=C1N(c2ccccc2C(F)(F)F)OC1(Cc1ccccc1)c1ccccc1 (stereo not drawn)	4	·	12%	3	·	1.1%	·
CCOC(=O)c1oc2ccccc2c1CSc1nnnn1-c1ccc(C)cc1	3	-37%[inhibitor]	-2%	-4	3%	-2.5%	3.5
CN(C(=S)NC(=O)C1CC1)c1ccc(O)cc1	-2	-36%[inhibitor]	5%	5	·	?	·
O=[N+]([O-])c1ccc(-c2nc(Cl)c3c(n2)CCCC3)o1	-2	?	·	·	·	-4.1%	·
O=C1c2ccccc2C(=O)N1CN(C(=O)COc1ccccc1)c1ccccc1	8	-25%	-17%	5	9%	1.2%	2.7
O=C(O)c1ccccc1-c1nc2cc(Cl)ccc2c(=O)n1O	9	-2%	0%	10	18%	·	-6.7
COc1ccc(OC)c(NC(=O)c2cn(C)c(=O)c3cc(OC)c(OC)cc23)c1	-16	5%	17%	2	21%	-0.6%	-0.3
CS(=O)(=O)N(CC(=O)N1CCCCCC1)c1cccc([N+](=O)[O-])c1	-4	0%[15.4 µM]	6%	-9	6%	-0.5%	0.9
